# High-throughput results (PubChem BioAssay)
# Rce1 inhib: inhibitors of yeast Ras-converting enzyme; Q03530; yeast membranes, quenched prenylated peptide cleavage fluorescence; calls only; 0.27% of 290,000 active; AID 2563;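 active means fall in fluorescence gain of 50% or more versus controls, with final raw signal at or below 3038400; inconclusive means same 50% fall but final raw signal above 3038400; inactive means fall in fluorescence gain under 50%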;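 further: plate controls were neutral control wells for no effect and wells lacking membranes for full effect; tested at 10 µM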
# MT1-MMP act inh: blocks activation of human MT1-MMP | P50281 | 0.061% of 360,000 active | HT1080 RFP-PRO-GFP cells, GFP/RFP ratio fluorescence, overnight; percent of plate control window, DMSO zero | GFP/RFP ratio change, % at 20 µM | AID 651647;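 active means GFP/RFP ratio change of at least 30% with cell ATP level not reduced by more than half and red fluorescence within 50% of control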; further: strong numbers were not always called active
#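 Assay system: HT1080 cells carrying an RFP-PRO-GFP reporter | Dosing: Single dose of 20 µM compound, 1% DMSO final | Incubation: Cells overnight before dosing, compound overnight, 37 °C, 5% CO2 | Evaluation: GFP/RFP fluorescence ratio | Control set: DMSO and RFP-L50D-GFP cell wells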
# UUG fidelity: modulators of start codon recognition fidelity in yeast; S. cerevisiae UUG-firefly luciferase reporter, luminescence/redox ratio; activity score, % at 18.7 µM; 0.13% of 350,000 active; AID 602363;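 active means replicate mean at a twofold rise or more, about +100% in these data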;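 further: firefly luciferase made from a UUG start codon reports start codon fidelity; reporter light over untreated wells divided by growth signal over untreated wells; some hits fall short of that in this replicate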
# eIF4H inh: inhibitors of RNA binding by human eIF4H. Q15056. eIF4H fluorescence polarization binding assay. inhibition, % at 35 µM. 0.94% of 290,000 active;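 active means 50% or more with normal probe brightness, or confirmed in later tests; inconclusive means above 50% with abnormal brightness, or retests that disagree; inactive means below 50% or failed in later tests; about a fifth of its hits are not listed in these tables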;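 further: calls also rest on retests at 20 µM and on dose response follow-up; 0% = protein and probe with vehicle and 100% = probe without protein; strong numbers were not always called active; many hits fall short of the cut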
# PABP polyA inh: blocks human PABP binding to poly(A) RNA | AID 2014 | inhibition, % at 35 µM | fluorescence polarization | 1% of 290,000 active;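 active means 50% or more with normal probe brightness, or confirmed in later tests; inconclusive means above 50% with abnormal brightness, or retests that disagree; inactive means below 50% or failed in later tests; about a fifth of its hits are not listed in these tables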;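 further: calls also rest on retests at 20 µM and on dose response follow-up; controls were probe without protein and protein plus probe with vehicle; some compounds called inactive have numbers as strong as hits; many hits fall short of the cut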
# Target sequence (P11940 whole entry, looked up): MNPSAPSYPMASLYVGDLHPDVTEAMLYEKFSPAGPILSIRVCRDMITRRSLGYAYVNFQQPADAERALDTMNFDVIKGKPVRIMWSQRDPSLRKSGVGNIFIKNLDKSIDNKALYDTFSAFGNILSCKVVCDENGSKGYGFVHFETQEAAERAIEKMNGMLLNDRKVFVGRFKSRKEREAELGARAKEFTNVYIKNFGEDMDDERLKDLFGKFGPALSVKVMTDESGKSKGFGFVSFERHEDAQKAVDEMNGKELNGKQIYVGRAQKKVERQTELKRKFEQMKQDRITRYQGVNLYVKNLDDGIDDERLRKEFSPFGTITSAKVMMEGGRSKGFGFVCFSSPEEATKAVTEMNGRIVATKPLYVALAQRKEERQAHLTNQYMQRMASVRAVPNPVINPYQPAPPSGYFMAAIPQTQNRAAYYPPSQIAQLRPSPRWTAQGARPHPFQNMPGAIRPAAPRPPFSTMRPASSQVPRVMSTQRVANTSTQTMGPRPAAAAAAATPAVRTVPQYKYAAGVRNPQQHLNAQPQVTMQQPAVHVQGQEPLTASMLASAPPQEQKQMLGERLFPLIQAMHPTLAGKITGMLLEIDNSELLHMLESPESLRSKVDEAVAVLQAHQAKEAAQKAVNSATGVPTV
# Env fusion inh: HIV envelope-mediated fusion inhibition; HeLa-JRFL Env/CEM21 cell fusion, luciferase; inhibition, % at 12.3 µM; 1.1% of 360,000 active; AID 651610;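 active means mean replicate inhibition score of at least 50 and every replicate individually at or above 50; inconclusive means only one of the two criteria met; inactive means mean below 50 and not all replicates reaching 50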;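 further: 0% = plate neutral controls and 100% = maraviroc near 300 nM; one replicate is shown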
# CSC inhib: cancer stem cell inhibition; cancer stem cell-like cells viability, luminescence; inhibition, % at 7.5 µM; 1.1% of 300,000 active; AID 2717;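 active means mean at 75% or more and at least half the replicates too; inconclusive means mean and replicates disagree; tested in HMLE shEcad cells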;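 further: 0% = median of negative and 100% = median of positive control wells; the first replicate is given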
# eIF4H inh retest: further read-out of eIF4H inh, marked with its call; inhibition, %; compound at 20 µM; confirmation average;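 mean of two retest wells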
# PABP polyA inh retest: recorded beside PABP polyA inh, whose call it bears; inhibition, %; compound at 20 µM; confirmation repeats;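 mean of two retest wells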
# MT1-MMP act inh RFP: further read-out of MT1-MMP act inh, marked with its call; RFP signal change, %; measured here: RFP expression control read;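 0 = vehicle wells; hits needed this value within 50% of zero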
# Active calls of the source: *; i = inactive; ? = inconclusive; / = no result given.
SMILES,Rce1 inhib,MT1-MMP act inh,MT1-MMP act inh RFP,UUG fidelity,eIF4H inh,PABP polyA inh,Env fusion inh,CSC inhib,others
CCC(C)Sc1cccc(-c2nc3ccc(Cl)cn3c2NCc2ccccc2)c1 (stereo not drawn),i,-5,-13,-15,/,/,/,58,
COc1ccc(/C=C/C(=O)OCc2cccc([N+](=O)[O-])c2)cc1,i,7,6,/,-2,?,-11,-7,
O=C(NCC1CCCO1)c1cc(S(=O)(=O)N2CCCC2)c(Cl)cc1Cl (stereo not drawn),i,2,-3,4,-12,5,11,-2,
CC1(C)C2CC[C@]1(C)C(=O)N(CCCCN1CCN(c3ccccn3)CC1)C2=O,i,-2,2,-8,-4,3,20,10,
O=C(CNC(=O)c1sc2ccccc2c1Cl)NC1CC1,i,7,3,-22,-7,-2,-13,3,
CC(C)OC(=O)COc1ccc(-c2ccccc2)cc1,i,-1,0,-23,-2,-1,-36,-11,
O=C(CCn1c(=O)oc2ccccc21)Nc1nc2ccccc2s1,i,1,-3,-10,-6,-16,-49,2,
O=NN(CC(=O)NNc1ccccc1)CC(=O)NNc1ccccc1,/,2,2,-3,/,/,-15,/,
CCC(c1nnnn1Cc1ccc(OC)cc1)N(CCCO)Cc1cc2cc3c(cc2[nH]c1=O)OCO3 (stereo not drawn),i,-10,-2,-7,5,7,-105,10,
O=C(CCNC(=O)Cn1ccc2ccccc2c1=O)NCCCN1CCN(c2ccc(F)cc2)CC1,i,-1,-1,-8,-3,-2,/,-7,
COc1ccc(C(=O)O)cc1S(=O)(=O)NCc1ccncc1,/,-3,0,/,/,/,5,-18,
COc1ccccc1N1CCN(c2nc3c(C)cccn3c(=O)c2C=O)CC1,i,-4,-4,/,14,17,-39,/,
Fc1ccc(Nc2nc(Oc3ccc4c(c3)OCO4)nc(N3CCOCC3)n2)c(F)c1,i,-1,-5,-21,-2,-3,-62,-2,
CN(c1ccc(C(=O)NCC2CCCO2)cc1)S(=O)(=O)c1ccccc1 (stereo not drawn),i,1,-2,-2,3,-4,/,/,
CCC(C(=O)OC)n1cnc2scc(-c3ccc(C)c(C)c3)c2c1=O (stereo not drawn),i,-1,0,-11,-2,-3,-10,-6,
COc1ccccc1NS(=O)(=O)c1cc(NC(=O)Cc2n[nH]c(=O)c3ccccc23)ccc1Cl,/,-2,-6,-11,/,/,26,10,
CCOCCCNC(=O)c1c[nH]c2ccc(C)cc2c1=O,i,9,1,/,-5,-4,-15,-11,
CC(=O)Nc1cccc(C(=O)O)n1,i,-3,0,/,4,5,7,-15,
COc1ccc(C)cc1NC(=O)CSc1ccc(-c2ccccn2)nn1,i,5,-7,-32,-15,9,37,57,
O=C(NCCC1CCCCN1S(=O)(=O)c1ccccc1)C(=O)Nc1ccc(F)cc1 (stereo not drawn),i,9,-2,-18,/,/,-1,-1,
CC1CCN(CC(=O)Nc2ccc(N3CCCCCC3)cc2)CC1,i,0,4,/,-6,6,11,43,
CC(=O)N1CCN(C(=O)c2ccco2)CC1,i,-1,2,4,6,4,-4,-13,
O=C(CSc1nnc(Cc2ccccc2)n1-c1ccc(F)cc1)N1CCOCC1,i,0,2,28,-14,-1,/,-15,
CC1(C)CC(=O)C=C(c2ccccc2CO)C1=O,/,-1,1,0,/,/,-4,/,
CC(C)n1nnc(-c2ccc(OCc3ccccc3F)cc2)n1,i,-1,0,-39,6,38,-26,11,
COCC1CCN(C(=O)c2ccc3oc(Cc4ccccc4)nc3c2)C1 (stereo not drawn),i,6,8,3,-14,3,-16,-3,
CCOc1ccc(NC(=O)CC2C(=O)N(C)C(=S)N2Cc2ccco2)cc1 (stereo not drawn),i,3,8,-13,-4,2,7,-4,
CCOC(=O)c1cc(-c2csc(-c3cccc(Cl)c3)n2)on1,i,1,-3,/,0,5,-5,-1,
Cc1cc(C)c2oc(=O)cc(CN3CCN(Cc4ccccc4)CC3)c2c1,i,0,-3,-7,0,-1,8,-11,
O=C(CSCc1ccc(F)cc1)Nc1ccccc1C(=O)N1CCOCC1,i,2,7,-1,-4,7,-18,15,
COCCCn1nnnc1SCC(=O)Nc1nc2ccccc2s1,i,-3,2,-10,-4,3,4,/,
O=C(Cc1c[nH]c2ccccc12)Nc1nnc(C2CC2)s1,i,-1,4,/,8,-3,4,24,
Cc1cccc(CN2CCC(Oc3ccc(C(=O)N4CCCCC4)cc3)CC2)c1,i,-1,-3,2,4,10,18,5,
Cc1ccc(/C=C/C(=O)Nc2ccc(S(N)(=O)=O)cc2)o1,i,-7,3,/,-1,4,18,0,
O=C(NCC(=O)N1CCCC1)c1cccs1,i,8,1,/,-1,-5,/,-7,
CCOC(=O)CNC(=S)NN(C)C,i,-1,1,-17,-8,-1,-1,-6,
CCOC(=O)c1cc(-c2ccc(C)cc2)n(CCC(=O)NC(C)CC)c1C (stereo not drawn),i,0,-6,-3,9,-3,-21,1,
COc1ccc(CCNC(=O)CSc2nc(C)nc3sccc23)cc1OC,i,0,-7,2,-1,-8,-2,-10,
CCC(=O)N1CCc2cc(S(=O)(=O)N(C)c3ccc(Br)cc3)ccc21,i,1,3,-1,-6,0,-3,/,
COc1cc(-c2[nH]nc3c2C(c2ccoc2)C(C#N)=C(N)O3)cc(OC)c1OC (stereo not drawn),/,5,8,-33,49,11,/,-17,
CCC1CCCCN1C(=O)COc1ccc(F)cc1 (stereo not drawn),i,2,0,2,-1,-2,16,6,
Cc1nc(C)c(-c2csc(Nc3ccccn3)n2)s1,i,5,-28,-38,-6,-9,-131,14,
Cc1ccc(CNC(=O)COC(=O)CN2C(=O)C3CC=CCC3C2=O)cc1 (stereo not drawn),/,-3,4,-1,/,/,/,0,
CC(C)[C@H](NC(=O)OC(C)(C)C)C(=O)NCC1CCC(C(=O)N[C@@H](Cc2ccccc2)C(=O)O)CC1 (stereo partly drawn),i,1,5,-4,-6,-10,-2,12,
O=C(NCCOCCOCCNC(=O)c1cccnc1)c1cccnc1,i,-1,0,-16,4,9,-33,-1,
O=C(Nc1ccc(OCC(F)(F)C(F)F)c(C(F)(F)F)c1)c1ccc(Cl)cc1,i,-46,-37,-6,/,/,69*,?,
O=C1OCCN1C(=O)[C@H]1[C@H](c2ccccc2)C(c2ccccc2)=NN1c1ccccc1,/,0,3,-6,/,/,-5,/,
C=CCn1c(SCC(=O)c2c(N)n(C)c(=O)n(C)c2=O)nnc1-c1ccncc1,i,10,-1,/,-6,-2,5,-6,
CN(C)CCNS(=O)(=O)c1ccc(N2CCc3ccccc32)c([N+](=O)[O-])c1,i,10,-2,-12,-13,4,-28,21,
Cc1cc(S(=O)(=O)NCc2ccc(N3CCN(C)CC3)cc2)c(C)s1,/,1,-2,-3,1,7,-58,41,
CC1=C(C(=O)Nc2ccccc2)C(c2cccs2)C(C#N)=C(SCC#N)N1 (stereo not drawn),i,-20,-4,-9,7,10,-8,/,
CC(Sc1nnc(-c2cccs2)n1-c1ccccc1)C(=O)NCc1ccco1 (stereo not drawn),i,-7,-3,-4,1,8,/,-5,
O=C(CN1CCN(S(=O)(=O)c2ccc(Br)cc2)CC1)N/N=C/c1ccncc1,i,4,1,/,-4,12,11,27,
CSc1ccccc1NC(=O)C1(C)CCN1C(=O)Cc1ccc(-c2ccccc2)cc1 (stereo not drawn),/,-3,-8,-11,/,/,27,/,
COc1ccc(NC(=S)N2CCN(S(C)(=O)=O)CC2)cc1,i,2,5,3,0,-1,-14,-3,
c1cc(Nc2ncnc3sc4c(c23)CCC4)ccn1,i,-2,-5,-8,-9,23,-1,-11,
CCn1cc(CCC(=O)NCc2ccc(F)cc2)c2ccccc21,i,2,1,8,2,-3,-47,24,
COc1ccc2c(c1)C(=O)N(c1ccc(C)cc1)C(=O)C2,i,3,1,-10,-6,3,/,1,
O=C(c1cc2nc(-c3ccco3)cc(C(F)(F)F)n2n1)N1CCN(c2ccccn2)CC1,i,10,7,/,-3,-5,/,-8,
COC(=O)c1ccc(/C=C2/SC(=S)N(CCC(=O)N3CCOCC3)C2=O)cc1,i,9,4,3,1,-5,-8,/,
# (further entries)
SMILES,Rce1 inhib,MT1-MMP act inh,MT1-MMP act inh RFP,UUG fidelity,eIF4H inh,PABP polyA inh,Env fusion inh,CSC inhib,others
O=C(CCn1c(=O)sc2ccccc21)Nc1ccon1,i,7,1,-21,4,75,/,-2,eIF4H inh retest=-1;PABP polyA inh retest=-4
Cc1ccc(S(=O)(=O)NC(C)C(=O)N2CCOCCOCCOCC2)cc1 (stereo not drawn),i,0,3,-1,1,-5,-2,/,
Cc1cc2c(cc1S(=O)(=O)NC1CCCCC1C)OCC(=O)N2 (stereo not drawn),i,4,-3,-7,4,1,-12,-8,
Cc1ccc(S(=O)(=O)N2C(=O)[C@@H]3Cc4ccccc4CN3C2=O)cc1,i,10,3,-23,-3,2,10,/,
CCN(C(=O)CSc1nc2cc(C(=O)O)ccc2c(=O)n1-c1ccccc1F)C1CCS(=O)(=O)C1 (stereo not drawn),/,0,6,-8,/,/,-7,/,
OCCNCCCCOc1ccccc1F,i,3,3,-12,-10,9,-18,-6,
CC(C)C(NC(=O)c1ccc(Cl)c([N+](=O)[O-])c1)C(=O)NCc1ccccn1 (stereo not drawn),/,-2,5,-14,/,/,-2,-2,
O=C(COc1ccccc1[N+](=O)[O-])N/N=C/c1cccs1,i,3,1,-39,0,-7,/,-9,

# Some of the compounds tested; the hit share may differ from the screen's.
